# 2A Renilla = Primary qHTS Assay for Foot and Mouth Disease Virus Antivirals against NCGC Sytravon and CBC Compound Libraries: Renilla Luciferase Signal | hit rate 0.32% among 120,000 | Potency, µM (series often up to 57.5 µM), for the others: top-dose signal change, negative = less light | HEK cells with a luciferase reporter of 2A StopGo recoding; active means well fitted falling curve with a large enough effect; inconclusive means small, poorly fitted or top-dose-only effect; inactive means no such curve, though single readings can be large or run the other way; further: nearly all actives have a fitted effect of over 55% in size; overnight with compound
# StopGo FLuc = Primary qHTS Assay for Foot and Mouth Disease Virus Antivirals against NCGC Sytravon and CBC Compound Libraries: Firefly Luciferase Signal; HEK cells with a luciferase reporter of 2A StopGo recoding; Potency, µM (titrated, usually from 57.5 µM), inactives show top-dose signal change, negative = less light; hit rate 0.23% among 120,000; AID 1745856, 2022; active = well fitted falling curve with a large enough effect; inconclusive = small, poorly fitted or top-dose-only effect; inactive = no such curve, though single readings can be large or run the other way; further: nearly all actives have a fitted effect of over 60% in size; overnight with compound
# Active calls of the source: *; ? = inconclusive; & = joins results of further samples; [ ] = another dose, or the depositor's remark. On the % scale 0 is the no-effect control and ±100 the full control effect; potency means the concentration at half of the fitted maximal effect.
# Sequence of screens – 2A Renilla, StopGo FLuc
> c1ccc(CCNC2CC2)cc1
    10%, 11%
> CSC1=N/C(=C\C=C\c2ccco2)C(=O)S1
    -9%, 0%
> O=Cc1[nH]c2ccccc2c1Cl
    9%, 13%
> COc1cccc(N2CCN(C(=O)c3cc4c(s3)-c3ccccc3OC4)CC2)c1
    -4%, 24%
> COc1cccc(C(c2sc3nc(-c4ccco4)nn3c2O)N2CCC3(CC2)OCCO3)c1 (stereo not given)
    71%[activator], 23%
> Cc1cccc(NC(=O)C2CCN(S(=O)(=O)c3ccc4c(c3)CCCN4C(=O)C3CCC3)CC2)c1
    -5%, -21%
> CN(Cc1ccccc1)Cc1nc2c(c(=O)n(C)c(=O)n2C)n1Cc1ccc(F)cc1
    -5%, -10%
> C[N+]1(CC[N+]2(C)CCCCC2)CCCCC1
    3%, -7%
> COc1ccc(-c2c(C)oc3cc(OC(=O)c4ccc5c(c4)OCO5)ccc3c2=O)cc1
    1%, 0%
> Cc1ccc(NC(=O)COC(=O)c2cc(=O)c3ccccc3o2)c(Br)c1
    -5%, 19%
> CCOc1cccc2cc(-c3nc4sc5c(c4c(=O)[nH]3)CCC(C(C)(C)C)C5)c(=O)oc12 (stereo not given)
    -14%, -21%
> CC(C)CNC(=O)CSc1ncnc2ccccc12
    -14%, 0%
> Cc1cc(C)c2nc(-c3ccccc3C)cc(C(=O)O)c2c1
    -7%[1.06 µM], 52%[activator]
> CC(C)c1ccc(C(=O)CC2(O)C(=O)N(CCc3ccccc3)c3ccc(Cl)cc32)cc1 (stereo not given)
    4%, -17%
> CCN1CCN(C(=O)Cn2c(-c3cccs3)cc3cc(Cl)ccc32)CC1
    2%, -7%
> CC(=O)Nc1ccc(-n2cc3c(c2-c2ccc(C)cc2)c(=O)n(C)c(=O)n3C)cc1
    -5%, -4%
> O=S(=O)(c1ccc(Br)cc1Cl)N1CCNCC1
    -5%, -4%
> O=C(Nc1cccc2[nH]ccc12)C(=O)NC(c1ccccc1)c1ccccc1
    9%, -5%
> COc1ccccc1Oc1ccc(NC(=O)Cn2ncc3ccc(OC)c(OC)c3c2=O)cc1
    -21%, 0%
> CCOc1ccccc1/C=C/c1onc(C)c1S(=O)(=O)N1CCC(C(=O)N2CCCCC2)CC1
    12%, -9%
> COc1ccccc1N1CCN(c2nc3ccc(C)cc3n3nnnc23)CC1
    6%, 19%
> COc1ccc(-c2nsc3c2NC(=O)CC3c2cc(OC)c3c(c2OC)OCO3)cc1 (stereo not given)
    21%, 1%
> CN1CCN(C(=O)c2cnn(-c3ccccc3)c2C2CCN(C(=O)OC(C)(C)C)CC2)CC1
    -14%, -11%
> N#Cc1cccnc1NCCNC(=O)c1cnc(-c2ccccc2)nc1
    -1%, 15%
> COc1ccc(C)cc1NC(=O)C(Sc1nnnn1C1CCCC1)c1ccccc1 (stereo not given)
    187%[activator], 18%
> Cc1cc(=O)oc2cc(OCC(=O)N3CCN(CCO)CC3)c(Cl)cc12
    1%, -9%
> CC(C)(C)c1ccc(C2(C)NC(=O)N(Cc3ncc(-c4ccccc4)o3)C2=O)cc1 (stereo not given)
    ?, ?
> COC(=O)c1c(NC(=O)COc2cccc(C(F)(F)F)c2)sc2c1CCCC2
    -9%, -13%
> COc1ccc(C2=NC3(CCCCCC3)N(CC(=O)Nc3ccc(C)c(C)c3)C2=O)cc1
    ?, -2%&0%
> Cc1ccc(NC(=O)CSc2nnc(CC3CCS(=O)(=O)C3)n2C)cc1 (stereo not given)
    -8%, 8%
> COc1ccc(NC(=O)c2sc3nc(C)c(C(=O)Nc4ccc(Cl)cc4)c(-c4ccc(Br)cc4)c3c2N)cc1
    8%, -18%
> COc1ccc(Cl)cc1CN(C)C(=O)c1ccc2c(c1)CCCN2S(C)(=O)=O
    17%, ?
> Cc1ccc(NC(=O)C2CCN(S(=O)(=O)c3ccc(N4CCCC4=O)cc3)CC2)cc1Cl
    ?, ?
> Cc1c(-c2ccccc2)c1=O
    -2%, 5%
> O=C(c1ccc(C2SCCS2)cc1)N1CCN(Cc2ccccc2)CC1
    -14%, 4%
> COc1cccc(N2CCN(C(C(=O)O)c3c[nH]c4cc(NC(=O)CCC(=O)O)ccc34)CC2)c1 (stereo not given)
    -2%, 9%
> O=C(CC1C=CCC1)Nc1ccc(SC2CCCC2)cc1 (stereo not given)
    ?, -2%
> CCOc1ccc(OCC)c(NS(=O)(=O)c2c(C)[nH]c(=O)[nH]c2=O)c1
    -15%, -17%
> Cc1ccsc1CCNS(=O)(=O)c1ccc2c(c1)NC(=O)CC(C)S2 (stereo not given)
    -40%, -34%
> CN(C)S(=O)(=O)c1cccc(NC(=O)c2cccc(Oc3ccccc3)c2)c1
    ?, ?

# By substructure: the entries above with a tert-butyl group.
# Sequence of screens – 2A Renilla, StopGo FLuc
> CCOc1cccc2cc(-c3nc4sc5c(c4c(=O)[nH]3)CCC(C(C)(C)C)C5)c(=O)oc12 (stereo not given)
    -14%, -21%
> CN1CCN(C(=O)c2cnn(-c3ccccc3)c2C2CCN(C(=O)OC(C)(C)C)CC2)CC1
    -14%, -11%
> CC(C)(C)c1ccc(C2(C)NC(=O)N(Cc3ncc(-c4ccccc4)o3)C2=O)cc1 (stereo not given)
    ?, ?

# (list continues)
# Sequence of screens – 2A Renilla, StopGo FLuc
> CC1=C(C(=O)OC2CCCC2)C(c2ccccc2Cl)CC(=O)N1 (stereo not given)
    -5%, -1%
> CCOC(=O)c1sc(Nc2ccc(C)cc2)nc1C
    21%, 255%[activator]
> CCc1ccccc1N(C)C(=O)C1CCCN(c2ncnc3c2nc2n3CCCCC2)C1 (stereo not given)
    -10%, -1%
> Cc1ccc(-c2csc(Nc3cc(C)ccc3C)n2)cc1
    15%, 0%
> CCOc1ccc(C(=O)Nc2cc(-c3nc4cc(OC)ccc4o3)ccc2C)cc1[N+](=O)[O-]
    13%&-4%, 196%[activator]
> CCCCCCNc1nc2c(c(=O)[nH]c(=O)n2C)n1CCCc1ccccc1
    -9%, -5%
> COc1ccc(OC)c(/C=N/NC(=O)CCC(=O)Nc2cccc(Cl)c2)c1
    0%, -7%
> Cc1cc(N2CCN(C)CC2)nc2ccc(NC(=O)Nc3ccc(Cl)cc3)cc12
    -2%, 25%
> Cc1cc(-c2csc(N)n2)c(C)n1-c1c(C)n(C)n(-c2ccccc2)c1=O
    -9%, -4%
> COc1ccc(C(C)=O)cc1COC(=O)C1(c2ccc(Cl)cc2)CC1
    -22%, -19%
> CCOC(=O)c1[nH]c2ccccc2c1NC(=O)c1ccc(Br)cc1
    -11%, -13%
> Cc1nc2cc(-c3ccccc3)nn2c(C)c1CCC(=O)NCCC(C)C
    -1%, ?
> COc1ccc(-c2nc3sc(CCNC(=O)c4cc(Cl)ccc4OC)c(C)n3n2)cc1
    -1%, 208%[activator]
> COc1ccc(OCCn2cc(C(C)=O)c3ccccc32)cc1
    ?, 25µM*
> Cc1cccc(C(=O)Nc2ccc(C(=O)OCc3cc(=O)n4nc(C5CC5)sc4n3)cc2)c1
    -14%, -16%
> Cc1cc2c(cc1S(=O)(=O)CCC(=O)N(C)Cc1ccccc1)OCC(=O)N2
    7%, 5%
> O=C(CCc1nc(CSc2n[nH]c(-c3cccc(F)c3)n2)no1)Nc1cccc2ccccc12
    11%, -3%
> CCCCN1C(=O)c2[nH]nc(-c3ccccc3O)c2C1c1ccc(OCc2ccccc2)c(OC)c1 (stereo not given)
    -8%, 6%
> COc1ccc(-c2cc(C(=O)OC(C)C)c3ccccc3n2)cc1
    -4%, 21%
> Cc1ccc(NC(=O)C2CCCCC2)cc1
    1%, 197%[activator]
> CCOC(=O)c1cccc(NC(=O)CCc2c(C)nc3c4cccnc4nn3c2C)c1
    2%, 3%
> CCOC(=O)C1C(c2ccc(O)c(OCC)c2)NC(=O)NC1(O)C(F)(F)F (stereo not given)
    5%, 3%
> CCOC(=O)COc1nc(C(C)C)c2c(c1C#N)CCCC2
    -1%, -1%
> COc1ccccc1NC(=O)Cn1c(=O)c(CNc2ccccc2)cc2cc(OC)c(OC)cc21
    -8%, 25%
> CN(C(=O)/C=C/c1cccc(Cl)c1)C1(c2ccccc2Cl)CCCCC1=O (stereo not given)
    -3%, -12%
> O=C(CN1CCCCC1)N1CCCN(S(=O)(=O)c2ccccc2)C1c1ccccc1 (stereo not given)
    0%, 12%
> Cc1ccc(NC(=O)Cn2c(CCC(=O)O)ccc2-c2cccs2)cc1Cl
    -3%, -11%
> CCC(=O)Nc1nnc(SCc2cc(=O)c3cc(C)ccc3[nH]2)s1
    -17%, -1%
> COc1ccccc1N1CCN(C(=O)c2cc(CC(C)C)on2)CC1
    -4%&-7%, 29%&6%
> CCCn1c2ccccc2c2cnn(CC(=O)N3CCCC(C)C3)c(=O)c21 (stereo not given)
    -9%, -16%

# In the list so far, four have bromine:
# Sequence of screens – 2A Renilla, StopGo FLuc
> Cc1ccc(NC(=O)COC(=O)c2cc(=O)c3ccccc3o2)c(Br)c1
    -5%, 19%
> O=S(=O)(c1ccc(Br)cc1Cl)N1CCNCC1
    -5%, -4%
> COc1ccc(NC(=O)c2sc3nc(C)c(C(=O)Nc4ccc(Cl)cc4)c(-c4ccc(Br)cc4)c3c2N)cc1
    8%, -18%
> CCOC(=O)c1[nH]c2ccccc2c1NC(=O)c1ccc(Br)cc1
    -11%, -13%

# Some of the entries so far, with bars between the fields:
SMILES | 2A Renilla | StopGo FLuc
COc1ccccc1NC(=O)Cn1c(=O)c(CNc2ccccc2)cc2cc(OC)c(OC)cc21 | -8% | 25%
CN(C(=O)/C=C/c1cccc(Cl)c1)C1(c2ccccc2Cl)CCCCC1=O (stereo not given) | -3% | -12%

# The results go on.
# Sequence of screens – 2A Renilla, StopGo FLuc
> O=c1oc2ccc3ccccc3c2cc1-c1csc(Nc2ccccc2F)n1
    -4%, 4%
> Cc1ccc(CSCCC(=O)NCc2ccc(F)cc2Cl)cc1
    -13%, 20%
> CCCSc1ncc(Cl)c(C(=O)Nc2scc(-c3ccc(C)cc3)c2C(=O)OCC)n1
    41%[activator], 42%[activator]
> Cc1cc(C)c(S(=O)(=O)N(CC(=O)O)Cc2ccc(Cl)cc2)c(C)c1
    0%, 16%
> CCCCn1nc(C(=O)Nc2ccc(OCC(=O)N(C)C)cc2)c2ccccc2c1=O
    50%[activator], 9%
> O=C(NCc1ccccc1OC(F)F)c1ccccc1-n1cnnn1
    -2%, 3%
> CCOC(=O)Nc1ccc(NS(=O)(=O)c2cc(F)cc(F)c2)cc1
    122%[activator], 1%
> O=C(Nc1cccc2cccnc12)c1cccc(S(=O)(=O)N2CCN(c3ccccc3)CC2)c1
    -8%, -4%
> Cc1cccc(Cn2nc(C)c(NC(=O)c3cc(-c4ccccc4)on3)c2C)c1
    -28%, ?
> CC(=O)Nc1ccccc1OCc1cccc(C)c1
    -3%, 0%
> O=C(Oc1ccc(Br)cc1Cl)c1ccc(CSc2ccc(Cl)cc2)cc1
    14%, 0%
> CCOC(=O)c1ccc(NC(=O)CN2CCCCC2)cc1
    2%, 15%
> Cc1ccc(CCNC(=O)C2COc3ccccc3C2)cc1 (stereo not given)
    5%, 23%
> CCOC(=O)N1CCC2(CC1)OC(=O)C(C)=C2C(=O)NCc1cccc(F)c1
    -11%, -22%
> CC(=O)Nc1ccc(NS(=O)(=O)c2c(C)nc3sccn3c2=O)cc1
    74%[activator], -11%
> O=C(CSc1nc(-c2ccccc2F)nc2cc(=O)[nH]n12)N1CCCc2ccccc21
    44%[activator], 83%[activator]
> CCc1cccc(C)c1NC(=O)CN1C(=O)c2c(c3ccccc3n2C)C1c1ccc(OC)cc1 (stereo not given)
    1%, -19%
> O=C(CCC(=O)N/N=C/c1ccccc1[N+](=O)[O-])N/N=C/c1ccccc1[N+](=O)[O-]
    -11%, 0%
> Cc1ccc(NC(=O)CSc2nc3c(cnn3-c3ccc(C)cc3)c(=O)[nH]2)cc1
    23%, 0%
> CCOc1ccc(C(=O)c2cn(CC(=O)Nc3ccc4c(c3)OCO4)c3ccc(OC)cc3c2=O)cc1
    -10%, -16%
> CCOc1cc2ccccc2cc1C(=O)Nc1nnc(C2CC2)s1
    -6%, 3%
> CC(C)(C)c1cc(N)c(O)c(Br)c1
    -5%, 10%
> CC(C)Oc1ccc(NC(=O)c2cc3ccccc3o2)cc1
    ?, 30%
> COCCn1c(SCC(=O)c2ccc(C3CCCCC3)cc2)nnc1-c1ccc(Cl)cc1
    17%, 5%
> C/C=C/Cn1c(Br)nc2c1c(=O)n(C)c(=O)n2C
    12%, 17%
> Cc1ccc(CNC(=O)Nc2ccc(N3CCOCC3)nc2)s1
    -6%, 38%[activator]
> O=S(=O)(c1ccc(Cl)cc1)N1CCC(c2ccncc2)CC1
    29%, 0%
> O=C(Nc1ccc(Br)cc1)c1cc(-c2cccs2)nc2ccccc12
    -8%, -12%
> O=C(CSc1nnc2ccccn12)Nc1ccc(S(=O)(=O)N2CCCC2)cc1
    12%, 2%
> O=C(/C=C/c1ccc(F)cc1)Nc1nc2n(n1)C(c1ccc(Cl)cc1)C=C(c1ccccc1)N2 (stereo not given)
    4%, -6%
> COC(=O)c1c(C)oc2ccc(N(C(=O)c3ccncc3)S(=O)(=O)c3cc(C)ccc3C)cc12
    102%[activator], ?
> Cc1nc(NC2CC2)sc1C(=O)NCc1ccco1
    -12%, 0%

# Three compounds out of the list, ordered by molecular weight, lowest first:
# Sequence of screens – 2A Renilla, StopGo FLuc
> C/C=C/Cn1c(Br)nc2c1c(=O)n(C)c(=O)n2C
    12%, 17%
> Cc1ccc(CNC(=O)Nc2ccc(N3CCOCC3)nc2)s1
    -6%, 38%[activator]
> COC(=O)c1c(C)oc2ccc(N(C(=O)c3ccncc3)S(=O)(=O)c3cc(C)ccc3C)cc12
    102%[activator], ?

# Compounds as they come. Share with any hit: about 0.55%.
